Compound activity as filed in PubChem.
A488 autofl: qHTS Assay for Spectroscopic Profiling in A488 Spectral Region; actives 0.1% (n = 59,000); AID 591, 2007; max dye equivalency, M; compound autofluorescence, A488 spectral region, dye equivalency; stronger effect = higher value; active = above 10 nM dye equivalent; inconclusive = 1 to 10 nM; inactive = 1 nM or less; about half of its hits are not listed in these tables;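 note: highest value over a series up to 38 µM; compound alone in buffer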
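Compounds pin-transferred into 100 mM Tris buffer, pH 8.0, incubated 15 min at room temperature, then imaged with 480 nm excitation/540 nm emission filters. Fluorescence converted to Alexa 488 dye-equivalent concentration via an on-plate six-point A488 standard curve.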
Resorufin fluor: qHTS Assay for Spectroscopic Profiling in Resorufin Spectral Region | Compound fluorescence, resorufin region 547/598 nm, buffer; stronger effect = higher value | max dye-equivalent concentration, M | actives 0.04% (n = 59,000) | AID 588, 2007; active = above 10 nM dye equivalent; inconclusive = 1 to 10 nM; inactive = 1 nM or less; a few of its hits are not listed in these tables; note: highest value over a series up to 38 µM
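Compounds in 100 mM Tris, pH 8.0, incubated 15 min at room temperature, then fluorescence read at 547 nm excitation/598 nm emission. Signal converted to dye-equivalent concentration via an on-plate six-point resorufin standard curve, per compound concentration.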
A647 fluor: qHTS Assay for Spectroscopic Profiling in A647 Spectral Region; max dye-equivalent concentration, M; Compound fluorescence, A647 channel (570/671 nm), Tris buffer; 59,000 tested, under 10 active; active means above 1 µM dye equivalent; inconclusive means 0.1 to 1 µM; inactive means 0.1 µM or less;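 note: values scaled relative to a standard on each plate; highest value over a series up to 38 µM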
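Compound fluorescence was measured in 100 mM Tris buffer, pH 8.0, after 15 min at room temperature, using 570 nm excitation and 671 nm emission filters. Signal was normalized to a per-plate Alexa 647 standard curve and expressed as dye-equivalent concentration at each compound concentration.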
TSHR ag: qHTS Assay for Agonists of the Thyroid Stimulating Hormone Receptor. Potency, µM (top dose mostly 57.1 µM), for the others: at the highest dose activation, actives largely listed as activators. AID 926, 2007. HEK293-CNG-TSHR cells (CNG channel as cAMP sensor), membrane potential dye, cAMP. Thyrotropin receptor (Homo sapiens), P16473. actives 0.48% (n = 73,000); active = well fitted activation curve of enough size with the parental cells flat; inconclusive = any curve in the parental cells; inactive = parental cells flat and receptor cells flat or falling; note: potency is the fitted concentration of half-maximal effect; % of control where 0% means no effect; weak receptor curves with flat parental cells got no call and are not listed
Target sequence (P16473 whole entry, looked up): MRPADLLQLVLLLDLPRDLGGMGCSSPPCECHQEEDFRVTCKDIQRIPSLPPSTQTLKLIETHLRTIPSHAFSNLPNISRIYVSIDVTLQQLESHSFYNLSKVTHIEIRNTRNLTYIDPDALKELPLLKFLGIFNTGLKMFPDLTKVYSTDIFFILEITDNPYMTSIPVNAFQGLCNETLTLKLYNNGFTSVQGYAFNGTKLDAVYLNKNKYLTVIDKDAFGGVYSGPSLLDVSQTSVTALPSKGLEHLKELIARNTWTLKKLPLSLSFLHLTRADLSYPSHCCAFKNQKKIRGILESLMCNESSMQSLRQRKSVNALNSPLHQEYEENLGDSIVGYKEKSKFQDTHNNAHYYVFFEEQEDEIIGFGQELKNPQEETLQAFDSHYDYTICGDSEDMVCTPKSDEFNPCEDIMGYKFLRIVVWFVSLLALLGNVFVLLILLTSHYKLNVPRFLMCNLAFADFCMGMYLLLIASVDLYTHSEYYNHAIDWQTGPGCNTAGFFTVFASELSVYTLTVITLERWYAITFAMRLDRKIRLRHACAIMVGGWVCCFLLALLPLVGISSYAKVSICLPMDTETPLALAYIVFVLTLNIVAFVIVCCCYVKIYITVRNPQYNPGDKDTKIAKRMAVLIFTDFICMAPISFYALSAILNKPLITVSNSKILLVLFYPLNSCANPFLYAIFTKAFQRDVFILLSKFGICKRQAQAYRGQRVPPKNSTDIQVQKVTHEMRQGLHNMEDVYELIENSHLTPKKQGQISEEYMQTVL
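cAMP rise detected as CNG-channel membrane depolarization by fluorescent dye (emission 590 nm), 30 min after compound, following 60 min dye loading containing 100 uM RO 20-1724 at room temperature. Cells: TSHR/CNG HEK 293, with parental CNG HEK 293 as control.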
AID923: qHTS Assay for Allosteric/Competitive Inhibitors of Caspase-1: Spectroscopic Profiling in AFC Spectral Region. compound fluorescence, AFC spectral region (405/520 nm); almost no hit is shown here. Potency, µM (titrated, usually from 57.5 µM), inactives show at the highest dose fluorescence increase, hits mostly activators. actives 1.1% (n = 75,000). AID 923, 2007; active = well fitted activation curve with a large enough effect; inconclusive = small, poorly fitted or top-dose-only effect;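 note: potency is the fitted concentration of half-maximal effect; 0% is about no effect; scaled to a free AFC standard on each plate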
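Baseline compound fluorescence (AFC region, 405 nm ex/520 nm em) taken from the intercept of kinetic reads with 50 nM caspase-1 and 5 uM Ac-WEHD-AFC; normalized to an on-plate AFC standard curve; compounds titrated up to 57 uM.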
An asterisk follows results filed as active; i = inactive; ? = inconclusive; . = no result given; [ ] = remark or other dose. This is a subset (hit frequency here may not be typical).

Structure	A647 fluor	A488 autofl	AID923	Resorufin fluor	TSHR ag
COc1ccc(OCC(=O)Nc2ncc3c(n2)CC(C)(C)CC3=O)cc1	4.6e-09	i	-0.5%	i	5.5%
O=S(=O)(NCc1ccc2c(c1)OCO2)c1cccc2cccnc12	1e-09	i	0.4%	i	-12.4%
CCCCCCCCOc1ccc(C(=O)O)cc1	.	.	-0.4%	.	?
CC1CCc2nn(CC(=O)NCCC3=CCCCC3)cc2C1 (configuration not stated)	.	.	-1.3%	.	27.9%
Cc1ccc(NC(=O)CCn2c(=O)oc3ccccc32)cc1	8.9e-09	i	0.1%	i	-5.4%
O=C(c1ccco1)N1CCN(C(=O)c2cnn3cccnc23)CC1	1.69e-08	i	-1.1%	i	-4.6%
O=C(COC(=O)c1ccc2c(c1)OCO2)NC1CCS(=O)(=O)C1 (configuration not stated)	1e-09	i	-0.6%	i	-1.5%
COc1ccc(Br)cc1S(=O)(=O)N1CCOCC1	1.9e-09	i	0.1%	i	-2.6%
Cc1ccc(C2=Nc3ccccc3NC(C)(c3ccc(C)o3)C2)o1 (configuration not stated)	3.59e-08	i	0.1%	i	16.0%
CCSc1oc(-c2ccco2)nc1S(=O)(=O)c1ccc(F)cc1	2.27e-08	i	0.8%	i	?
CCOC(=O)c1sc(N)c(C(=O)Nc2ccc(C)cc2C)c1C	.	.	4.5%	.	-10.7%
CCN(c1ccccc1)S(=O)(=O)c1cnc[nH]1	1e-09	i	0.7%	i	-0.5%
CC1(C(=O)O)CCC(C(=O)N2CCOCC2)C1(C)C (configuration not stated)	1e-09	i	-1.8%	i	-1.5%
O=C(c1coc(=O)c(Br)c1)N1CCCc2ccccc21	1e-09	i	.	i	.
CC(C)N(Cc1nc(-c2ccccc2)no1)C(=O)c1ccc2c(c1)OCO2	1.84e-08	i	0.2%	i	13.9%
Cc1ccc2cc(COC(=O)c3ccncc3)c(=O)[nH]c2c1	3.22e-08	i	2.9%	i	12.3%
COc1ccc(C(=O)/C=C\N2CCOCC2)cc1	.	.	-1.2%	.	8.2%
O=C(CSc1nnc(-c2ccco2)o1)c1ccccc1	1.6e-09	i	1.7%	i	-2.9%[11.4 µM]
COc1ccc(C2NC3=C(CCC3)C3(C#N)C(OC)(OC)N=C(N)C23C#N)cc1 (configuration not stated)	1e-09	i	.	i	.
COCCOC(=O)c1c(C)n(C)c2ccc(OC(=O)N3CCOCC3)cc12	1.9e-09	i	-1.1%	i	0.1%
Cc1ccc(-n2ncc3c2ncn2c(-c4ccncc4)nnc32)cc1	8.4e-09	i	-2.1%	i	5.4%
CCc1ccccc1S(=O)(=O)Cc1ccc(C(=O)NCC2CCCO2)o1 (configuration not stated)	1e-09	i	1.0%	i	11.0%
O=C(NCC1CCCO1)c1cccnc1Nc1ccccc1F (configuration not stated)	1.37e-08	i	0.5%	i	1.8%
O=C(CN1CCN(C2CCCCC2)CC1)c1ccc2cc[nH]c2c1	.	.	7.0%	.	8.3%
CSc1nnc(Cn2c(=O)sc3ccccc32)n1-c1ccccc1C	.	.	1.1%	.	23.1%
CC1CCN(C(=O)C2Cc3ccccc3CN2S(=O)(=O)c2ccc(F)cc2)CC1 (configuration not stated)	1e-09	i	1.5%	i	?
COc1cccc(CC(NC(C)=O)C(=O)NC2CCN(c3c4c(nc5ncnn35)CCC4)CC2)c1 (configuration not stated)	1.31e-08	i	1.0%	i	12.8%
Cc1cc(-c2cccnc2)c(C#N)c(SCC#N)n1	3e-09	i	1.1%	i	?
CCOC(=O)c1ccc(NC(=O)Cn2cc3c(n2)CCC(C)C3)cc1 (configuration not stated)	.	.	-1.7%	.	5.3%
O=C(Nc1nc2ccccc2n1Cc1ccc(Cl)cc1)c1ccco1	.	.	3.4%	.	?
Cc1noc(C)c1-c1nc(NCc2ccccc2)c2ccccc2n1	9.8e-09	i	1.5%	i	?
Cc1ccc(NC(=O)c2ccco2)cc1C	.	.	0.7%	.	7.8%
COC(=O)[C@@H]1CC[C@H](C)[C@@H](c2ccc(C)cc2)N1C(=O)c1ccc(/C=N\OC[C@@H](O)[C@H]2O[C@H]3OC(C)(C)O[C@H]3[C@@H]2O)cc1	.	.	1.4%[11.5 µM]	.	0.5%[11.4 µM]
O=C(CN(C(=O)c1ccco1)c1cccc(F)c1)NCc1ccc(F)cc1	5.7e-09	i	-1.5%	i	15.4%
O=C(NCc1ccc(Cl)c(Cl)c1)c1cccnc1	.	.	-1.8%	.	-2.8%[11.4 µM]
Cc1ccc2nc(CSc3nnc(-c4ccco4)n3-c3ccccc3)cc(=O)n2c1	1.17e-08	i	-0.3%	i	?
CC(C)CCNC(=O)Cn1c(=O)oc2cc(S(=O)(=O)N3CCc4ccccc43)ccc21	.	.	1.2%	.	0.5%
O=C(NCCCN1CCOCC1)c1ccc(CS(=O)(=O)c2c(Cl)cccc2Cl)o1	.	.	0.2%	.	?
CCNS(=O)(=O)c1ccc(NS(=O)(=O)c2cc(C)ccc2C)cc1	8.5e-09	i	3.0%	i	-20.3%
CCc1nc(SCC(=O)N2CCCC2)c2ccccc2n1	1e-09	i	0.6%	i	?
O=C(OCc1cccs1)c1ccccc1NS(=O)(=O)c1ccc2c(c1)OCCO2	2.86e-08	i	0.0%	i	10.4%
COC(=O)c1ccc(NC(=O)C23CCC(C)(C(=O)O2)C3(C)C)cc1 (configuration not stated)	.	.	3.7%	.	-6.2%
COc1ccc(OC)c(-c2nc(C)sc2CC(=O)O)c1	1e-09	i	-2.1%	i	3.6%
CN1CCCC(OC(=O)c2ccc3c(c2)OCCO3)C1 (configuration not stated)	2.83e-08	i	1.7%	i	8.5%
CCOC(=O)c1snc(-c2ccc(F)cc2)c1N	1.8e-09	i	-0.5%	i	-4.5%
CC(=O)Nc1ccc(C2NC(=O)c3ccccc3O2)cc1 (configuration not stated)	2.14e-08	i	0.3%	i	7.0%
O=C(CCCN1C(=O)c2ccccc2C1=O)Nc1nncs1	1e-09	i	0.3%	i	10.9%
COc1ccc(C)cc1-n1nnnc1SCc1nc2ccccc2s1	2.76e-08	i	5.5%	i	?
O=C1c2oc3ccccc3c(=O)c2C(c2cccs2)N1CCCN1CCOCC1 (configuration not stated)	1e-09	i	2.3%	i	-3.9%
CCCOc1ccc(N2C(=O)CC(N3CCC(c4nncn4CC)CC3)C2=O)cc1 (configuration not stated)	5.2e-09	i	-0.7%	i	2.3%

Full records as entered above. Values in the order: A647 fluor, A488 autofl, AID923, Resorufin fluor, TSHR ag
Listed for O=C(Nc1nc2ccccc2n1Cc1ccc(Cl)cc1)c1ccco1 → ., ., 3.4%, ., ?
Listed for O=C(NCCCN1CCOCC1)c1ccc(CS(=O)(=O)c2c(Cl)cccc2Cl)o1 → ., ., 0.2%, ., ?
Listed for CCOC(=O)c1ccc(NC(=O)Cn2cc3c(n2)CCC(C)C3)cc1 (configuration not stated) → ., ., -1.7%, ., 5.3%

The list goes on:
Structure	A647 fluor	A488 autofl	AID923	Resorufin fluor	TSHR ag
CC(C)Sc1nc(N)c2c3c(sc2n1)CN(C)CC3	9.2e-09	i	1.3%	i	21.7%
Cc1ccc(C(=O)C2CCNCC2)cc1	4.63e-08	i	-0.9%	i	-6.6%
O=c1[nH]c2ccc(S(=O)(=O)Nc3ccc(-c4nnc5n4CCCCC5)cc3)cc2o1	2.3e-09	i	-1.0%	i	0.2%
CCOc1ccc(C(=O)OCC(=O)NCc2ccco2)cc1OCC	3.85e-08	i	-1.1%	i	1.8%
O=C(Nc1ccc2c(c1)ncn2-c1ccccc1)c1ccco1	1.9e-09	i	-2.6%	i	-3.6%
COc1ccc(S(=O)(=O)N2CCN(c3cccc(C)c3C)CC2)cc1	.	.	0.1%	.	33.6%
CCCn1cc(C(CC(=O)O)C(=O)O)c2ccccc21 (configuration not stated)	1e-09	i	-1.1%	i	4.4%
C=CCN1C(=NC(=O)CCCC(=O)O)SC2CS(=O)(=O)CC21 (configuration not stated)	5.4e-09	i	-1.1%	i	0.0%
CCN1CCN(C(=O)c2cc3c(=O)n4ccccc4nc3n2Cc2ccccc2)CC1	3.26e-08	i	2.3%	i	4.6%
Cc1ccnc2nc(C(=O)NC3=NCCS3)nn12	1e-09	i	-0.3%	i	.
O=C(NNS(=O)(=O)c1ccccc1)c1cccnc1	2.31e-08	i	2.2%[11.5 µM]	i	-1.5%[11.4 µM]
O=C(NC1CCS(=O)(=O)C1)OC1CCCCC1 (configuration not stated)	1e-09	i	-0.7%	i	10.2%
CC1CCCC(C(=O)O)N1C(=O)CCSC(=O)c1ccccc1 (configuration not stated)	1e-09	i	3.7%	i	-0.8%
Cc1ccc(/C(O)=C2\C(=O)C(=O)N(CCCN(C)C)C2c2ccccn2)cc1 (configuration not stated)	3.01e-08	i	-0.5%	i	1.4%
COc1ccccc1C1/C(=C(/O)c2ccc(C)cc2)C(=O)C(=O)N1CC(C)O (configuration not stated)	6.6e-09	i	0.3%	i	2.3%
Cc1nn(C)cc1/C=N/n1nnnc1N	3.8e-09	i	.	i	.
CC(O)c1nc2ccc(Cc3ccc4nc(C(C)O)[nH]c4c3)cc2[nH]1 (configuration not stated)	2.1e-08	i	0.6%	i	2.3%
COc1cccc(-c2ccc3ncnc(NCc4cccs4)c3c2)c1	1.64e-08	i	2.0%	i	?
Cc1cc(NC(=O)COC(=O)COc2ccc3c(c2)CCC3)no1	2.18e-08	i	-2.3%	i	2.2%
Nc1nc(-c2ccccc2)nc(-c2ccccc2O)n1	8e-09	i	-0.3%	i	?
COC(=O)C(CCSC)NC(=O)C(NC(=O)C1CCC(C)CC1)C(C)C (configuration not stated)	2.46e-08	i	-0.5%	i	0.6%
Cc1nc2cc(-c3cccc(F)c3)nn2c(C)c1CCC(=O)N1CCN(c2ccccn2)CC1	.	.	0.4%	.	?
CC(=O)NC1CCC(C(=O)O)(c2ccccc2)C1 (configuration not stated)	3.25e-08	i	1.6%	i	-0.9%
O=c1oc(-c2ccco2)nc2c1cnn2-c1ccccc1	1e-09	i	0.3%	i	9.2%
O=C(CSc1nc(N2CCCCC2)nc(N2CCCCC2)n1)N1CCc2ccccc21	1.42e-08	i	0.7%	i	-8.0%
CC(C)OCC(O)CN1CCN(CC(O)COc2ccc3c(c2)OCO3)CC1 (configuration not stated)	1e-09	i	-0.4%	i	-2.1%
CCCNC(=O)c1ccc2c(c1)ncn2-c1ccccc1OC	2.15e-08	i	-0.7%	i	-1.8%[11.4 µM]
Cc1nnc(SCC(=O)NC2CC2)n1CCc1ccccc1	1.92e-08	i	0.3%	i	0.0%
CCc1nnc(NC(=O)CSc2nnc(-c3ccoc3C)n2-c2ccccc2)s1	3.23e-08	i	0.7%	i	22.4%
CC(=O)N1CCN(c2ccc(NCc3ccc(C)cc3)cc2)CC1	1e-09	i	1.5%	i	0.7%
CCOC(=O)N1CCN(C(=O)c2ccc3nc(SCc4ccc(F)cc4)n(C)c3c2)CC1	.	.	-0.9%	.	12.0%
O=C(Cn1nc(-c2ccccc2)c2ccccc2c1=O)NCC1CCCO1 (configuration not stated)	2.32e-08	i	2.8%	i	7.1%
